Source: PubChem BioAssay (ICCB-Longwood Screening Facility, Harvard Medical School)
AID504770: growth inhibitors of E. coli YBA685 in a screen for V. cholerae RctB (chromosome II replication) inhibitors. E. coli YBA685 rctB-dependent plasmid, OD600 growth, 3 h; hits give low values. z-score (test concentration not listed). actives 0.27% (n = 130,000);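 active = z-score under -2 on both plates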;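 note: wells of about 30 µL received 100 nL stock; score is relative to mean and SD of the test wells; the first replicate is given; strong numbers were not always called active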
Ba CapD inh: CapD enzyme inhibition. purified CapD enzyme, fluorescence intensity read-out; hits give low values; some hits fall short of the stated cut. z-score (test concentration not listed). actives 0.23% (n = 140,000). AID 492967;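 active = z-score under -4 in either of two replicates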;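 note: stock transfer was 100 nL into about 40 µL; score is relative to mean and spread of the plate; one replicate is shown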
An asterisk follows results filed as active; · = not tested or not shown.

Each structure is followed by: AID504770	Ba CapD inh
CCOC(=O)C1=C(C)NC(SC)=C(C#N)C1CC(C)C (stereo unspecified)
 : -0.6	1.7
CCSC(=C(C#N)C#N)c1cc2c([nH]1)CCCC2
 : -0.5	·
O=C(COC(=O)/C=C/c1cn(-c2ccccc2)nc1-c1ccccc1)NC1CC1
 : -2.5	46
O=C1NC(=S)N/C1=C\c1ccccc1
 : 0.95	·
Clc1ccc(CN2CCN(Cc3ccc(Cl)cc3)C2c2cccc(Br)c2)cc1
 : ·	0.1
Cc1cc2nc(Cc3ccc(Cl)cc3Cl)c(=O)[nH]c2cc1C
 : ·	1.2
Cn1c(SCC(=O)c2ccc(O)cc2O)nc2sccc2c1=O
 : 0.45	·
O=[N+]([O-])c1cccc(CSc2nc3ccccc3n2S(=O)(=O)c2ccccc2)c1
 : ·	-0.14
N=C1/C(=C/c2ccco2)C(=O)N=C2SC=C(c3ccccc3)N12
 : 0.95	-0.14
NC(=O)CC(=O)c1ccc(F)cc1
 : -1.2	-0.73
NC(=O)c1ccc(N2CCN(C(c3ccccc3)c3ccccc3)CC2)nc1
 : -0.4	0.8
CC(C)NC(=O)C1CCN(S(=O)(=O)N2CCCCCC2)CC1
 : -0.1	0.33
O=C(Nc1nnc(CCS(=O)(=O)c2ccc(Br)cc2)s1)C1CCCCC1
 : ·	-0.24
CC1CN(C=O)c2ccccc2N(Cc2ccccc2)C1=O (stereo unspecified)
 : ·	-0.075
CCOC(=O)C1=C(C)N=c2s/c(=C/c3cc(OC)c(O)cc3Br)c(=O)n2C1c1ccccc1 (stereo unspecified)
 : ·	-0.14
Cc1ccc(Cc2nnc(C(=O)NCC3CCCO3)o2)cc1 (stereo unspecified)
 : -0.85	0.71
CN(c1ccccc1)S(=O)(=O)c1ccc(C(=O)NC2=NCCS2)cc1
 : -0.55	·
CC1CC(C)CN(C(=O)Nc2ccc(F)cc2)C1 (stereo unspecified)
 : -0.15	0.64
COc1ccc(C2C3=C(Nc4[nH]c(=O)[nH]c(=O)c42)c2ccccc2C3=O)cc1 (stereo unspecified)
 : -0.5	-1.8
COc1ncnc2sc(C(=O)O)c(C)c12
 : -0.45	0.39
COc1ccc(CCNS(=O)(=O)c2cccc3nsnc23)cc1OC
 : ·	-0.69
Cc1ccc(-n2c(C)cc(-c3csc(NC(=O)C(C)C)n3)c2C)cc1
 : -0.15	·
COC(=O)C(C)Sc1n[nH]c(-c2ccc(Br)cc2)n1 (stereo unspecified)
 : -0.9	·
Cc1cc(OCCn2cc(/C(N)=N/O)c3ccccc32)ccc1Cl
 : 0.5	0.29
Cc1ccc(S(=O)(=O)NC(=O)N2CCCCCC2)cc1
 : 0.15	·
O=S(=O)(c1cc(Cl)c(Cl)cc1Cl)N1CCOCC1
 : ·	-0.12
S=C(NCCc1ccccc1)NNC1=NCCCCC1
 : 0.15	·
COc1ccc(/C=C/C(=O)NCCn2ccc3ccccc32)cc1OC
 : 2.4	0.43
CCc1ccccc1NC(=O)c1sc2nc3c(c(-c4ccco4)c2c1N)CCC3
 : ·	0.11
CC(NC(=O)CSc1nnc2ccccn12)c1ccc2c(c1)OCCO2 (stereo unspecified)
 : -0.15	·
Cc1cc(-n2nc3ccccc3n2)c2oc(SCc3nnc(-c4ccccc4)o3)nc2c1
 : 0.05	1.3
Cc1cc2c(cc1C)-c1c(sn(-c3ccc(C(C)C)cc3)c1=S)C(C)(C)N2
 : ·	-0.32
COC(=O)c1c(C(=O)OC)c2n(c1C)CSC2
 : -1.9	0.24
O=C(Nc1ccc(S(=O)(=O)Nc2ccccn2)cc1)c1cc2ccccc2o1
 : -0.4	·
Cc1nnc(SC(C)C(N)=O)n1Cc1ccccc1 (stereo unspecified)
 : -0.25	·
CCOC(=O)N1CCC(NC(=O)c2ccc3c(c2)nc(C)n3-c2ccc(OCC)cc2)CC1
 : ·	0.53
COc1ccc(-c2csc3nc(-c4ccccc4Cl)oc(=O)c23)cc1
 : ·	0.99
O=C(NCc1cccc(C(F)(F)F)c1)c1cc(N2CCOCC2)nc(N2CCOCC2)n1
 : ·	4.5
O=C(O)C1C2C=CC3(CN(CC4CCCO4)C(=O)C13)O2 (stereo unspecified)
 : -1	-0.18
CCn1c(C(=O)N2CCC(C(=O)NCc3ccccc3OC)CC2)cc2sccc21
 : 0.15	-0.035
CCN(CC)c1ccc(C(=O)OCc2nc3ccccc3c(=O)[nH]2)cc1
 : 0.5	·
CC1(C)C2CCC1(CS(=O)(=O)Nc1cc(C(=O)NCc3ccco3)ccc1N1CC3CC(C1)c1cccc(=O)n1C3)C(=O)C2 (stereo unspecified)
 : ·	0.11
O=C(c1cccc(Br)c1)N(Cc1cccs1)Cc1cccs1
 : 0.6	·
CC(Sc1n[nH]c(N)n1)C(=O)OC1CCCCC1 (stereo unspecified)
 : -0.8	·
CCC1C(=O)CN1S(=O)(=O)c1ccc(C)cc1 (stereo unspecified)
 : 0.25	0.11
COc1ccc2oc(=O)c(/C(C)=N/O)cc2c1
 : 0.25	·
O=C(OCc1ccc2c(c1)OCO2)OCc1ccc2c(c1)OCO2
 : -1.1	0.3
COc1ccc(N2CCN(C(=O)c3ccccc3N(C)S(C)(=O)=O)CC2)cc1
 : -1	·
COc1cc(C(=O)Nc2nnc(CC(=O)NCc3ccccc3)s2)cc(OC)c1OC
 : ·	1.7
Cc1nc(=S)[nH]c(C)c1CCC(=O)N1CCN(S(=O)(=O)c2ccc(F)cc2)CC1
 : 0.9	·
Oc1ccc2c3c1OC1[C@@H](O)CC[C@@]4(O)[C@@H](C2)N(CC2CCC2)CC[C@]314 (stereo partly specified)
 : -0.5	-0.01
O=C(NCCCc1nc2ccccc2n1CCCOc1ccccc1)c1ccco1
 : -0.3	-2.6
O=[N+]([O-])c1ccc(C(O)CNCc2ccccc2)cc1 (stereo unspecified)
 : ·	0.25
Cc1ccc(C)c(-n2c(CNC(=O)c3ccc(S(=O)(=O)N(C)C)cc3)nnc2SCC(=O)Nc2nccs2)c1
 : ·	0.41
COCCNC(=O)c1ccc(N2CC3CC(C2)c2cccc(=O)n2C3)c(NS(=O)(=O)CC23CCC(CC2=O)C3(C)C)c1 (stereo unspecified)
 : ·	0.045
CCCOc1ccc2oc(=O)c3c(c2c1)CCCN3C(=O)CN(CC)c1cccc(C)c1
 : -0.7	2
CCC(Sc1ccc2nnc(-c3ccccc3)n2n1)C(=O)OC (stereo unspecified)
 : -0.25	0.1
N#CC1(c2ccccc2Cl)C(=O)Nc2ccccc21 (stereo unspecified)
 : 0.45	-0.45
CCc1ccccc1NC(=O)c1cc(-c2cccs2)on1
 : 0.4	2.3
O=C(O)CCC(=O)Nc1nc2n(n1)C(c1ccccc1)CC(=O)N2 (stereo unspecified)
 : -0.55	80

The list goes on.
Each structure is followed by: AID504770	Ba CapD inh
CCOc1cc(/C=c2\sc3nc4ccccc4n3c2=O)ccc1OCc1ccccc1F
 : ·	-0.66
CN(C)CCCn1c(N)nc2ccccc21
 : -0.1	0.15
CC(C)n1c(C(F)(F)F)nc2cc(C(=O)N3CCC(O)CC3)ccc21
 : -0.35	-0.41
COCCn1c(=S)[nH]c2cc(C(=O)N3CCN(Cc4ccc5c(c4)OCO5)CC3)ccc2c1=O
 : ·	-0.81
C=C(C)c1cccc(C(C)(C)NC(=O)Nc2ccccc2OC)c1
 : -0.05	0.4
CCOC(=O)c1ccccc1NC(=O)c1sc(NC(=O)Cc2ccc(OC)cc2)c(C(=O)OCC)c1C
 : ·	0.26
O=C(O)CN1C(=O)/C(=C2/OC(=O)c3ccccc32)SC1=S
 : 0.05	·
O=C1C2C(c3ccccc3)C=CC(c3ccccc3)C2C(=O)N1c1cccc(Br)c1 (stereo unspecified)
 : 0.05	-0.33
CCCC#CCCOC(=O)N1CCN(Cc2cc(OC)c(OC)cc2Br)CC1
 : ·	0.23
CC(NC(=O)CSc1nnc(-c2ccc(F)cc2)o1)c1ccc(Br)cc1 (stereo unspecified)
 : -0.2	·
CC(C)NC(=O)CSc1nc2ccccc2[nH]1
 : -0.75	·
O=C(CCCN1C(=O)c2cccnc2Sc2ccccc21)N1CCCC1
 : 0	0.25
O=C(CSCc1ccccc1)Nc1ccccc1
 : -0.3	-0.28
Cc1nn(CC#N)c(C)c1Br
 : ·	-0.33
CCN1CCCC1CNC(=O)c1ccc2c(c1)[nH]c(=O)n2Cc1ccc(OC)cc1 (stereo unspecified)
 : -0.7	·
CCCCNC(=O)c1cc2ccccc2s1
 : 2	-0.065
CCOc1ccc(NC(=O)c2cc3c(=O)n(C)c4ccccc4c3n2C)cc1
 : 0.2	0.28
CC(c1ccccc1)N1C(=O)CC(Sc2ncccc2C(=O)O)C1=O (stereo unspecified)
 : -0.75	0.52
Cc1ccc(C(=O)n2cnnc2N)cc1Cl
 : -0.5	0.69
Cc1[nH]ccc(=O)c1OCc1ccc(Cl)cc1Cl
 : ·	-0.11

Exported field by field: part of the list above.
mol: CCCCNC(=O)c1cc2ccccc2s1
- AID504770 = 2
- Ba CapD inh = -0.065

mol: CCOc1ccc(NC(=O)c2cc3c(=O)n(C)c4ccccc4c3n2C)cc1
- AID504770 = 0.2
- Ba CapD inh = 0.28

mol: CC(c1ccccc1)N1C(=O)CC(Sc2ncccc2C(=O)O)C1=O (stereo unspecified)
- AID504770 = -0.75
- Ba CapD inh = 0.52

mol: Cc1ccc(C(=O)n2cnnc2N)cc1Cl
- AID504770 = -0.5
- Ba CapD inh = 0.69

The list goes on:
Each structure is followed by: AID504770	Ba CapD inh
O=C(Cc1ccc(-n2cccc2)cc1)NC1CCCCCC1
 : -0.4	·
Cc1ccccc1NC(=O)C1C(=O)N(CCO)C2(C)CC1c1ccccc1O2 (stereo unspecified)
 : 0.15	0.45
Cc1c(Cc2ccccc2)c(N2CCCCC2)n2c(nc3ccccc32)c1C#N
 : ·	-0.27
CC1(C)C(=O)Nc2ccccc2N1C(=O)COc1ccc(C#N)cc1
 : 0.05	·
COc1ccc(Cl)cc1NC(=O)CSCc1cnn(-c2ccccc2)c1-n1cccc1
 : -0.9	-0.96
CSc1ccccc1NC(=O)CSc1ccccc1
 : 0	-0.32
C=CCNc1nc(N2CCCCC2)nc(N2CCCCC2)n1
 : -0.4	·
C/C(N)=C(/C#N)C(=O)CSc1nncn1-c1ccccc1
 : -1.1	·
Cc1cc(S(=O)(=O)c2cc3ccc(O)c(C)c3oc2=O)ccc1F
 : 1.9	14
COc1ccc2c(c1)C(C)=CC(C)(C)N2
 : -0.45	42
COc1ccc(CNCc2cccc(OC)c2)cc1
 : -0.25	65
O=C(CSc1nnnn1-c1ccc(O)cc1)N1CCSC1c1ccccc1F (stereo unspecified)
 : -0.05	·
O=[N+]([O-])c1cc(C(F)(F)F)ccc1Oc1cc(C(F)(F)F)cc(C(F)(F)F)c1
 : ·	-0.53
COC(=O)CSc1cc(Cl)nc(Cl)c1
 : ·	0.06
CCCNC(=O)c1ccc2c(c1)N(Cc1ccccc1)C(=O)c1ccccc1S2
 : 0.15	0.39
CCC(c1nnc(SCC(=O)NC23CC4CC(CC(C4)C2)C3)o1)N(C)C (stereo unspecified)
 : -2.1	·
CCOC(=O)C(C)Sc1nnc(CNC(=O)C23CC4CC(CC(C4)C2)C3)n1-c1ccccc1 (stereo unspecified)
 : 1.5	5.7
Cc1ccc(S(=O)(=O)C2(C(=O)N(C)Cc3ccccc3)CC2)cc1
 : -0.85	-0.16
CCN(CC)C(=O)CSc1nc2ccccc2nc1Cc1ccc(F)cc1
 : ·	0.56
O=c1c2ccccc2c(-c2ccccc2)nn1CCc1ccccn1
 : -0.6	0.31
CC(C)C(=O)OCC(=O)Nc1ccc(S(=O)(=O)N(C)C)cc1
 : 0	·
CN(C)c1ccc(/C=N/NC(=O)c2cc(Br)ccc2Cl)c2ccccc12
 : ·	0.48
CCOC(=O)c1ccc(NC(=O)CSc2ncnc3ccccc23)cc1
 : 2	-1.3
O/N=C1/CCSc2ccccc21
 : -2.2	4.3
CCN(CC)CCNC(=O)c1ccc2c(c1)[nH]c(=S)n1c3ccccc3nc21
 : ·	-0.43
CC(C)(C)NC(=O)CSc1nc2ccccc2n1-c1ccccc1
 : -0.4	-0.065
COc1ccc(Cl)cc1NC(=O)c1cc2c(CO)cnc(C)c2oc1=N
 : 1.1	-1.1
Cc1ccc(SCC2=NN(c3nc(C)cc(C)n3)C(=O)C2)cc1
 : 0.15	0.3
CCN(Cc1ccccc1)C(=O)CSc1nnc(C)c(=O)n1N
 : -0.1	·
CC(=O)N(c1nc(-c2cc3ccccc3oc2=O)cs1)c1cccc(C)c1C
 : 0.05	-1.2
CCCNC(=O)C1CCN(S(C)(=O)=O)CC1
 : -0.25	·
COc1cc(C2C3=C(CCCC3=O)OC3=C2C(=O)CCC3)ccc1O
 : ·	0.035
COc1ccccc1C1CCN(C(=O)c2ccccc2Cl)CC1
 : ·	0.16
CC(=O)Nc1ccc2c(c1)sc(=NC(=O)c1ccco1)n2C
 : 2.5	0.42
COC(=O)CCN1C(=O)/C(=C\c2cccs2)SC1=S
 : 0.1	-0.06
CN(C)n1cccc1/C=C(\C#N)S(=O)(=O)c1cccc(Cl)c1
 : -0.9	0.2
Cc1cccc(NC(=O)C2CCCN2C(=O)OCc2ccccc2)n1 (stereo unspecified)
 : -0.8	-0.44
O=S(=O)(c1ccc(F)cc1)N1CCN=C1SCc1ccc(F)cc1
 : -0.65	-0.28
OCc1cccnc1Sc1ccccc1
 : -1.4	0.06
Cc1ccc(-c2cn3c(=S)[nH]nc3s2)cc1
 : 0.25	·
CCN1C(=O)/C(=C2/Sc3ccccc3N2C2CCCCC2)SC1=S
 : ·	-0.02
Nc1c(C(=O)NC2CC2)sc2nc(-c3cccs3)cc(C(F)(F)F)c12
 : ·	12
